YopH PTP inh = blocks Yersinia enterocolitica YopH tyrosine phosphatase; fluorescence Ex485/Em525; inhibition, %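 (about 10 µM by stock and volumes)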; 140,000 compounds, 0.16% hits;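 active = inhibition of 50% or more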;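 also: controls were vehicle for no effect and minimum signal wells for full effect; inactives centre near -20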
Arbovirus anti = arbovirus infection inhibition | arbovirus infection cell-based antiviral screen | inhibition, % at 10 µM | 200,000 compounds, 0.37% hits | AID 1251;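 active = inhibition from about 30%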;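 also: bluetongue infection of BSR cells; cell survival read as ATP light after 72 h; 0% = infected wells without compound and 100% = uninfected wells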
Mtb betalactam = beta-lactam sensitization of Mtb H37Rv. M. tuberculosis H37Rv growth with meropenem, percent inhibition; hits of this screen are not shown here. inhibition, % at 25 µM. 330,000 compounds, 0.27% hits. AID 434955;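 active = about 74% or more and at least 40 points above the plate without the antibiotic, then above 30% in a dose series; inconclusive = first-round hits that could not be retested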;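 also: growth measured after seven days incubation then overnight dye step; 0% = bacteria only wells and 100% = bacteria with antibiotic; twin plates without the antibiotic show which effects depend on it; some results filed as inactive read as strong as hits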
Mtb growth = M. tuberculosis H37Rv growth inhibitors, H37Rv strain (AID 1626) | M. tuberculosis H37Rv growth inhibition; higher % means a stronger effect | one-dose inhibition, % at 10 µM; IC50 in µM for titrated hits | 220,000 compounds, 0.95% hits;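 active = confirmed in a dose series; inconclusive = inhibition above 80% but not taken into the dose series; inactive = below 80% or under 30% at every dose of the series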;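 also: bacteria incubated seven days before Alamar blue readout; 0% = bacteria only wells and 100% = bacteria with antibiotic wells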
RecA splice inh = Mtb RecA intein splicing inhibition; AID 2221; P9WHJ3; cell-free RecA intein splicing, fluorescence; inhibition, %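 (about 9 µM by stock and volumes)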; 290,000 compounds, 0.75% hits; in the data active = inhibition above about 30%; inconclusive = no clear call, values can overlap the other calls;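 also: 0% = vehicle wells and 100% = reference inhibitor control wells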
Target sequence (P9WHJ3 whole entry, looked up, canonical isoform): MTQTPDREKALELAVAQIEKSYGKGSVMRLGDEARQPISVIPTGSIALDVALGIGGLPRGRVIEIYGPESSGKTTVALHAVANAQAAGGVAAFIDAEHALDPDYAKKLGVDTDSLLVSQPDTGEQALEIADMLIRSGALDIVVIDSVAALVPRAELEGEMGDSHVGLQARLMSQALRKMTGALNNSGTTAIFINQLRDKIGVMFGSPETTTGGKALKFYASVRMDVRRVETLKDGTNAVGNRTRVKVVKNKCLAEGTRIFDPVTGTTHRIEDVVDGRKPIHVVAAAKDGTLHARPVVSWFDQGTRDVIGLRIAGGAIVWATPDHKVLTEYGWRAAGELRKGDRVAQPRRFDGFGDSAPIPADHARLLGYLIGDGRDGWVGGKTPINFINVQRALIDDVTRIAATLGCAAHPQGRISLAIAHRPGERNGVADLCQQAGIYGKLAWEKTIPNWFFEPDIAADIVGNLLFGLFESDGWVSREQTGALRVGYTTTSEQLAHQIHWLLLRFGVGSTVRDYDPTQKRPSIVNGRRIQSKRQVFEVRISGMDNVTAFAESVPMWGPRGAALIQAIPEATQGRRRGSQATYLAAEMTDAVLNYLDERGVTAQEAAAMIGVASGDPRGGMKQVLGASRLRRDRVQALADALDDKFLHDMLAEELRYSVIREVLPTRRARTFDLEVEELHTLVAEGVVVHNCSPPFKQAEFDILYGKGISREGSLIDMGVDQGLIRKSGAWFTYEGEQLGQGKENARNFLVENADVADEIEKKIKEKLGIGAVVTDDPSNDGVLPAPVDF
Arbovirus anti repeat = second read-out of Arbovirus anti, no call of its own (marks repeat the call); inhibition, %; measured here: 10K subset replicate screen; many hits read low in the repeat;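 first of two repeat runs on a subset; 0% = infected and 100% = uninfected wells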
Starred values were filed as active, the others as inactive; ? = inconclusive; · = no result given. The list is partial; count on the stated rates, not on these rows.

SMILES	YopH PTP inh	Arbovirus anti	Mtb betalactam	Mtb growth	RecA splice inh	others
CC(Cl)C(=O)Nc1ccccc1C#N (stereo not given)	-3	6	1	2%	-0.2
Cc1cc(-c2sccc2Br)nc(-n2cccc2)n1	·	6	·	4%	5.9
C=CCNC(=S)N1CCC(C(=O)c2ccc(OC)cc2)CC1	-38	5	-3	-4%	4.3
COc1ccccc1NC(=S)NC(=O)CCCOc1ccc(Cl)cc1Cl	10	-4	7	1%	0.6
COc1ccccc1C1C(C(=O)c2cc3ccccc3o2)=C(O)C(=O)N1CCN(C)C (stereo not given)	-27	9	-9	-5%	3.6
CNC(=O)C(=O)NCC1OCCN1S(=O)(=O)c1ccc(OC)c(OC)c1 (stereo not given)	·	·	-15	·	-0.8
CC(C)c1cc(C(=O)N/N=C/C=C/c2ccccc2)n[nH]1	-31	-13	7	3%	-2.5
CCOCC(=O)Nc1nc2ccc(C)cc2s1	-10	4	96	9%	8.6
Cc1ccc(C)c(NC(=O)/C(C#N)=C/c2ccc[nH]2)c1	·	·	-5	·	0.4
O=C1c2ccccc2C(=O)C1c1ccc(Cl)cc1	·	·	0	·	0.3
CCc1nnc(N/N=C\c2ccc(OC(C)=O)c(OC)c2)n1N	·	·	-5	·	-0.8
Cn1nnnc1SCC(=O)Nc1nc(-c2ccccc2)c(-c2ccccc2)o1	9	-16	96	36µM*	3.7
CC(C)CNC(=O)C(=O)NCC1OCCCN1S(=O)(=O)c1cccs1 (stereo not given)	·	·	-2	·	1.1
CCOC(=O)c1c(C)n(-c2ccccc2)c2ccc(O)c(CN(C)C)c12	·	-20	-12	2%	-4.0
CCCn1c2ccccc2c2nnc(SCCN3CCOCC3)nc21	·	·	-5	·	1.2
COc1ccc(-c2oc3cc(OC)c(O)c(OC)c3c(=O)c2OC)cc1O	·	-11	1	1%	-1.1
N#CC(C#N)=C1C=C2C=C(N3CCCCC3)CCC2CC1 (stereo not given)	-28	-11	-1	-2%	·
CCC(C(=O)OCC(=O)Nc1cccc(S(=O)(=O)NC2=NCCCCC2)c1)c1ccccc1 (stereo not given)	·	9	-5	-6%	3.3
C/C(=N/NC(=O)c1ccc(Br)s1)c1cccnc1	·	·	2	·	2.2
O=C(Cn1cnc2ccccc21)N/N=C/c1cccc([N+](=O)[O-])c1	·	-1	-6	1%	-1.6
COc1ccc(C(=O)O)cc1S(=O)(=O)N(C)CCc1ccccn1	·	·	-1	7%	-0.4
CCC(C)NC(=O)c1nn(Cc2ccccc2)c(=O)c2ccccc12 (stereo not given)	·	·	0	·	-3.4
COC(=O)c1cc(OC)c(OC)c(OC)c1N	1	0	1	·	-1.9
O=C(Nc1ccccc1)Oc1ccccc1N1CCOCC1	·	·	1	-10%	-0.9
COCC(C)NC(=O)c1noc2c1CCc1cc(OC)ccc1-2 (stereo not given)	-29	-6	6	-4%	3.5
Cc1nnc(SCc2cccc3ccccc23)s1	·	·	6	-3%	1.0
COc1ccc(CNC(=O)c2sc3nc4c(c(C(F)(F)F)c3c2N)CCC4)cc1	-18	6	·	?	-32
Cn1c(SCC(=O)N2CCCC2)nnc1-c1cnccn1	·	5	0	-5%	-3.3
COc1ccc(N/C=C/C(=O)c2ccc(C)cc2)c([N+](=O)[O-])c1	-38	·	1	-7%	-1.2
COc1ccc(N2CCN(C(=O)COc3ccc4c(C)cc(=O)oc4c3C)CC2)cc1	·	·	3	·	-1.9
Cc1cc(C)c2c(N)c(C(=O)N3CCCCCC3)sc2n1	-43	-1	4	-1%	-8.3
COc1ccc(C(CNC(=O)c2ccc(-n3cnnn3)cc2)N2CCOCC2)cc1 (stereo not given)	-39	1	-4	-5%	2.2
Cc1cc2cc(CNC(=O)c3ccc(S(=O)(=O)N4CCOCC4)cc3)ccc2n1C	-39	-8	1	12%	2.6
COc1ccc2c(c1OC)C(=O)N(c1ccc(F)cc1)C2	·	·	4	·	4.6
Cc1cccc(Nc2c(F)c(F)c(F)c(F)c2C(=O)O)c1	·	5	0	0%	3.8
N#CCc1nc2ccc(S(=O)(=O)N3CCOCC3)cc2s1	·	·	-3	-8%	15
COC(=O)C1=C(C)N(c2cccc(OC)c2)C(=O)/C1=C\c1ccco1	-31	4	0	-1%	-4.8
Cc1ccc(C)c(N2CCN(C(=O)Cc3cn(C)c4ccccc34)CC2)c1	-19	-12	-6	-9%	14
NC(=O)CSc1nnc(-c2ccc([N+](=O)[O-])cc2)o1	·	9	39	-3%	0.3
Cc1cc(/C=C(/C#N)c2nc3ccccc3[nH]2)c(C)n1-c1cccc([N+](=O)[O-])c1	2	-15	61	16%	-0.2
COc1ccc(-c2nc(CS(=O)CC(=O)NCc3ccc4c(c3)OCO4)c(C)o2)cc1OC (stereo not given)	·	·	9	·	-1.7
CSc1ncc(/C=C2/C(=O)NC(=O)N(c3ccc(C(C)C)cc3)C2=O)cn1	-36	-9	-4	-4%	0.9
Cn1c(SCC(=O)N(C2CCCCC2)C2CCCCC2)nnc1-c1cccs1	10	-5	9	12%	2.1
COc1ccc(CNC(=O)Cc2c(C(=O)O)[nH]c3ccccc23)cc1	-8	10	3	0%	0.0
COc1cc(/C=C2/C(=O)NN(c3ccc(F)cc3)C2=O)cc(Cl)c1O	·	·	64	·	4.9
O=C(CSCc1ccccc1)Nc1ccc2c(c1)OCO2	-34	-5	96	-1%	9.2
Cn1c(Cn2c(C(F)(F)F)nc3ccccc32)nc2ccccc21	-24	9	-5	6%	-1.6
CNC(=S)Nc1ccc(OC)c(OC)c1	-10	-3	-5	-7%	-2.0
O=C(CSc1nnc(C2COc3ccccc3O2)o1)N1CCOCC1 (stereo not given)	33	1	13	8%	-5.5
Cc1ccccc1CN(c1ccc(C(=O)N/N=C/c2ccc(OCC(N)=O)cc2)cc1)S(C)(=O)=O	·	-7	4	-2%	0.4
Cc1cc(C)c(-c2csc(NC(=O)C3=NN(c4ccccc4)C(=O)CC3)n2)c(C)c1	-12	22	4	10%	15
NS(=O)(=O)c1ccc(NC(=S)NCc2ccccc2)cc1	17	5	-2	-2%	-0.5
Cc1cc(C)cc(NC2=CC(=O)CC(c3ccco3)C2)c1 (stereo not given)	-21	2	-6	-3%	3.5
COCCCn1nnnc1SCC(=O)Nc1nc(C)c(C)s1	-2	-3	-4	-8%	-1.7
CCC(C)NC(C(=O)Nc1ccc(Cl)c([N+](=O)[O-])c1)c1ccccc1 (stereo not given)	-23	3	6	1%	2.6
Cc1cc(C)nc(/N=C(\N)Nc2ccc(F)c([N+](=O)[O-])c2)n1	-15	-9	1	0%	3.7
Cc1ncc(CN2CCN(C3CCCC3)C(CCO)C2)s1 (stereo not given)	·	1	-1	-8%	2.5
COc1cccc(OC)c1NC(=O)CN(C)S(=O)(=O)c1ccc2c(c1)OCCO2	·	·	4	·	1.2
Cc1cccc(C)c1NC(=O)CN(C)C(=O)c1cccc(NS(=O)(=O)c2ccccc2)c1	·	·	1	·	-2.5
COc1ccc(NC(=O)[C@H](C)NC(=O)C2CCN(S(=O)(=O)c3ccc(C)cc3)CC2)cc1OC	·	·	-1	·	-2.9

Other structures
SMILES	YopH PTP inh	Arbovirus anti	Mtb betalactam	Mtb growth	RecA splice inh	others
CCOC(=O)COc1nc(N(C)C)nc(N(C)C)n1	3	-4	9	0%	-0.8
CCN(CC)CCNC(=O)c1cc(Nc2ccc(OC)c(OC)c2)nc2ccccc12	·	·	1	·	-0.1
Cc1cc(C)c(NC2=CC(=O)CC(C)(C)C2)c(C#N)c1	3	-3	2	5%	-2.5
NC(=O)c1ccc(SCC(=O)NC2CCCCC2)c([N+](=O)[O-])c1	·	-6	-8	-5%	-2.9
CCCSc1nc(=O)n2cc(C)ccc2n1	-20	-3	5	-11%	·
COc1ccc(NC(=O)CNC(=O)c2cccs2)cc1Cl	·	1	0	2%	3.7
CC(C)(C)C(=O)NCCc1nc2ccccc2n1CC(=O)c1ccccc1	-36	1	-1	-6%	-0.2
CCN(Cc1nc(-c2cccc(C)c2)no1)C(=O)c1ccco1	·	·	-4	·	1.3
CCOCCCn1c(SCC(=O)Nc2ccc3[nH]c(=O)[nH]c3c2)nc2ccccc2c1=O	·	·	-5	·	-1.0
Cc1cccc(C(=O)NCC(=O)OCC(=O)c2cc(C)n(CC3CCCO3)c2C)c1 (stereo not given)	·	1	-1	-1%	·
COC(=O)c1ccc(C2CC(=O)Nc3cc(OC)c(OC)cc32)cc1 (stereo not given)	-14	-4	-7	-10%	-0.3
N/C(=N/O)c1ccccc1N1CCC(Cc2ccccc2)CC1	·	28	8	6%	7.9
COc1ccc2c(c1)C=C(CN1CCN(C(C)C)C(CCO)C1)CO2 (stereo not given)	·	0	-11	7%	-15
CCCOc1ccc(-c2cn3ccccc3n2)cc1	·	-5	6	10%	0.8
CCN(Cc1ccccc1)C(=O)COC(=O)c1cc(Cl)nc(Cl)c1	·	9	0	11%	0.2
CC(C)NC(=O)C1CCN(C2CCN(Cc3ccc4cccc(F)c4n3)CC2)CC1	·	10	-5	8%	-0.5
CC(Sc1nnc2ccccn12)C(N)=O (stereo not given)	·	4	-2	0%	-3.0
Cc1sc2nc(SCCO)n(-c3ccccc3)c(=O)c2c1C	·	·	1	·	1.3
Cc1cc(C)nc(SCC(=O)N/N=C\C(Br)=C\c2ccccc2)n1	-8	0	6	3%	-0.1
CCOC(=O)C1=C(N)c2ccccc2CC1C1CCCC1 (stereo not given)	·	·	5	-5%	12

Looked up by structure from the entries so far, 2 records:
SMILES	YopH PTP inh	Arbovirus anti	Mtb betalactam	Mtb growth	RecA splice inh	others
CC(C)(C)C(=O)NCCc1nc2ccccc2n1CC(=O)c1ccccc1	-36	1	-1	-6%	-0.2
CCC(C)NC(C(=O)Nc1ccc(Cl)c([N+](=O)[O-])c1)c1ccccc1 (stereo not given)	-23	3	6	1%	2.6

Next entries follow.
SMILES	YopH PTP inh	Arbovirus anti	Mtb betalactam	Mtb growth	RecA splice inh	others
O=C(O)/C=C/c1cccnc1	·	·	-5	-1%	-2.2
Cc1ccc(C(OCC(O)CNC(CO)C(O)c2ccc([N+](=O)[O-])cc2)c2ccccc2)cc1 (stereo not given)	·	·	-9	·	-0.2
O=C(COc1ccc(Br)cc1)NCCO	-45	6	1	1%	-0.7
Cc1c(N(C(=O)Nc2ccccc2)C2=NCC(C)S2)c(=O)n(-c2ccccc2)n1C (stereo not given)	-31	7	-10	0%	0.6
O=C(CSc1nc(=O)n(CCCN2CCOCC2)c2c1CCC2)Nc1ccccc1F	·	·	-8	·	7.5
CCCCC(=O)Nc1ccc(NCc2ccc(C)s2)cc1	·	·	-3	·	4.3
CCC1=NN2C(=N)/C(=C\c3ccc(SCc4ccco4)o3)C(=O)N=C2S1	-16	62*	5	-11%	·
C#Cc1ccc([C@@H]2C=C(C(=O)O)O[C@H](OCCCCO)C2)cc1	·	3	-5	-11%	-1.2
COc1ccccc1NC(=O)CCN1C(=O)C2C3CCC(C3)C2C1=O (stereo not given)	·	·	-18	·	-0.3
COc1ccc(S(=O)(=O)Nc2ccccc2C(=O)N2CCCC2)cc1C	·	·	-7	·	-1.8
Cc1ccc(CNC(=O)c2ccccc2N)cc1	-11	-1	6	16%	0.0
Cc1csc(SCC(=O)N2CCCC2)n1	-30	6	-12	-2%	6.7
CCOC(=O)c1c(C)[nH]c(C)c1C(=O)COC(=O)c1cccc(C)c1O	2	0	-4	7%	4.5
COc1ccc(Cl)cc1S(=O)(=O)N1CCN(C)CC1	-37	2	3	-7%	-0.6	Arbovirus anti repeat=2
N#CCCSCc1ccc(C(=O)O)o1	0	2	1	1%	1.2
COc1cc(/C=C/C(=O)O)cc(S(=O)(=O)Nc2cccc(S(=O)(=O)N3CCOCC3)c2)c1OC	·	·	0	-2%	0.4
Cc1csc(C(=O)NCC(=O)NNC(=O)c2cccc(Cl)c2)c1	·	·	-13	·	0.2
CCc1ccc(C(=O)NNC(=O)c2ccc(=O)n(C)n2)cc1	·	·	-10	·	5.5
CCC(C(=O)NCCCc1ccccc1)c1ccccc1 (stereo not given)	-17	-8	3	7%	2.9

Of the compounds above, these have a CF3 group.
SMILES	YopH PTP inh	Arbovirus anti	Mtb betalactam	Mtb growth	RecA splice inh	others
COc1ccc(CNC(=O)c2sc3nc4c(c(C(F)(F)F)c3c2N)CCC4)cc1	-18	6	·	?	-32
Cn1c(Cn2c(C(F)(F)F)nc3ccccc32)nc2ccccc21	-24	9	-5	6%	-1.6

Of the compounds above, 4 contain bromine:
SMILES	YopH PTP inh	Arbovirus anti	Mtb betalactam	Mtb growth	RecA splice inh	others
Cc1cc(-c2sccc2Br)nc(-n2cccc2)n1	·	6	·	4%	5.9
C/C(=N/NC(=O)c1ccc(Br)s1)c1cccnc1	·	·	2	·	2.2
Cc1cc(C)nc(SCC(=O)N/N=C\C(Br)=C\c2ccccc2)n1	-8	0	6	3%	-0.1
O=C(COc1ccc(Br)cc1)NCCO	-45	6	1	1%	-0.7

Assay outcomes (PubChem BioAssay)
